Assay outcomes: PubChem, several laboratories
RGS16-Gao = regulators of human RGS16-Galphao interaction; O15492+P09471; bead-based flow cytometry RGS16-Galphao binding, fluorescence; actives lie on both sides; AID 1441; binding response (% of control), % at 10 µM; 220,000 tested, 0.38% active;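 active = below 25% or above 175%, edge rows of some plates excepted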;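 note: Galphao activated by GDP with aluminum fluoride before binding; 100% = wells without compound and 0% = beads without RGS; some results beyond the cut were filed as inactive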
Target sequence (O15492 whole entry, looked up): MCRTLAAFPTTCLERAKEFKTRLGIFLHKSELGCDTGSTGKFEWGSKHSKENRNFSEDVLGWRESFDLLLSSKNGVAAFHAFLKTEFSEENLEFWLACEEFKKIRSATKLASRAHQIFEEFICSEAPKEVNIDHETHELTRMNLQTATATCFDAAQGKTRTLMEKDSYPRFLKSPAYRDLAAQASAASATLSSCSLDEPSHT
Target sequence (P09471 whole entry, looked up): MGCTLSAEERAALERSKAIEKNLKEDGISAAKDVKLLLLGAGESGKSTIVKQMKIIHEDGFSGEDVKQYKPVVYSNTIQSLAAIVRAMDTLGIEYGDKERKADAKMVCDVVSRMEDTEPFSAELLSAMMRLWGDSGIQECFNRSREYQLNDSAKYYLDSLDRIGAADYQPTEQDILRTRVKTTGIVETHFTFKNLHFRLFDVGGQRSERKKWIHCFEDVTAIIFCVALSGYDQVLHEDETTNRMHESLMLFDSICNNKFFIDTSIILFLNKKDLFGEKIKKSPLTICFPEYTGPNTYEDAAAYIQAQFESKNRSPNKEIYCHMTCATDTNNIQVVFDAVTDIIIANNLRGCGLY
PKD1 inh = PKD1 (human) kinase inhibition; Q15139; PKD1 kinase fluorescence polarization assay; inhibition, %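 (about 10 µM by stock and volumes)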; 200,000 tested, 0.056% active; AID 797;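 active = inhibition of 50% or more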;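 note: controls were vehicle for no effect and a reference inhibitor for full effect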
HSV augment = HSV replication enhancement. HSV replication augmentation in cells, fold increase. maximum fold increase. AID 1956. 220,000 tested, 0.005% active;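 active = peak rise of 1.5-fold or more in the series; inconclusive = self-fluorescent or not available for retest; tested in PC3 cells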;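 note: first round at 10 µM; read as green reporter fluorescence; hits show the peak of a series up to 25 µM; 1 = signal of infected wells without compound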
Insulin prom inh = TRM-6 insulin promoter activity inhibition | TRM-6 cells (human fetal islet line), insulin promoter-eGFP reporter, imaging; reporter expression induced with tamoxifen | inhibition, % at 2 µM | 130,000 tested, 0.9% active | AID 1273;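 active = inhibition above the mean plus 3 SD, with well images judged a real hit on visual review, cut at about 60% in these data, passing the limit was not always enough; inconclusive = inhibition over the cutoff but images rejected on review; inactive = inhibition not above the cutoff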
GALR2 ag = activates the human galanin receptor 2; O43603; GALR2-expressing cells, agonist activation read-out; activation, %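 (tested at 5 µM)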; 140,000 tested, 0.48% active; AID 803;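 active = above mean plus 3 SD of all compounds, about 5% in these data, not always enough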;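 note: 0% = vehicle buffer wells and 100% = reference agonist at full effect; tested in CHO reporter cells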
Target sequence (O43603 whole entry, looked up): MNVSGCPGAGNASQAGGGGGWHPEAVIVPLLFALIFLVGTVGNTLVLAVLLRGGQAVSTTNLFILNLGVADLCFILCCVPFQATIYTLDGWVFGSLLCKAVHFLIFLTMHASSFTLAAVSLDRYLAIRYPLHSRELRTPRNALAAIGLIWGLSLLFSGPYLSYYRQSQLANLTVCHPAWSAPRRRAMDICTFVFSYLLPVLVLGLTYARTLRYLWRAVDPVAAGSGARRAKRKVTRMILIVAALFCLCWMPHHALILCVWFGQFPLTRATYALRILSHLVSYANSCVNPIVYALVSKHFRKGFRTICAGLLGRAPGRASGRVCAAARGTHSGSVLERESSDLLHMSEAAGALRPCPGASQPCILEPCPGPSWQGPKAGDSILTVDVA
Insulin prom inh cell count = second read-out of Insulin prom inh, no call of its own (marks repeat the call); normalized cell count, %; measured here: cell count, toxicity; reference of the scale not given here;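 cells exposed to compound for 48 h; stained nuclei by imaging scaled within each plate; lower means fewer cells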
HSV augment primary fold = also measured in HSV augment; calls as there; fold increase; compound at 10 µM; measured here: primary screen fold increase 10 uM; tested in PC3 cells;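 GFP signal in the first replicate; 1 = infected wells without compound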
An asterisk follows results filed as active; i = inactive; u = inconclusive; x = not tested or not shown.

A first look:
SMILES	RGS16-Gao	PKD1 inh	HSV augment	HSV augment primary fold	Insulin prom inh	Insulin prom inh cell count	GALR2 ag
O=C(O)/C=C/c1ccc(OCCCF)cc1	100	9	i	0.96	x	x	x
CC(NC(=O)COc1ccc(Oc2ccccc2)cc1)C(=O)O (centres undefined)	101	0	i	0.81	34	150	-1.6
Cc1cc(C)c2c(n1)sc1c(N3CCN(CCO)CC3)ncnc12	173	-7	i	0.95	67	101	1.8
O=C1CCc2cc(S(=O)(=O)N3CCN(C(=O)c4ccco4)CC3)ccc2N1	107	-8	i	0.9	18	94	-0.9
Cc1cc([N+](=O)[O-])cnc1N1CCOCC1	29	5	i	0.98	36	102	-1.3

Results, from the first entry:
SMILES	RGS16-Gao	PKD1 inh	HSV augment	HSV augment primary fold	Insulin prom inh	Insulin prom inh cell count	GALR2 ag
O=C(O)/C=C/c1ccc(OCCCF)cc1	100	9	i	0.96	x	x	x
CC(NC(=O)COc1ccc(Oc2ccccc2)cc1)C(=O)O (centres undefined)	101	0	i	0.81	34	150	-1.6
Cc1cc(C)c2c(n1)sc1c(N3CCN(CCO)CC3)ncnc12	173	-7	i	0.95	67	101	1.8
O=C1CCc2cc(S(=O)(=O)N3CCN(C(=O)c4ccco4)CC3)ccc2N1	107	-8	i	0.9	18	94	-0.9
Cc1cc([N+](=O)[O-])cnc1N1CCOCC1	29	5	i	0.98	36	102	-1.3
COc1ccc(C2(C(=O)Nc3c(C)n(C)n(-c4ccccc4)c3=O)CCCC2)cc1OC	102	1	i	1	24	126	-1.5
CC(=O)Nc1ccc2nc(NC(=O)COc3cccc(C)c3)sc2c1	105	-6	i	0.84	-22	115	x
COc1cc2c(cc1OC)C1=NC(=O)CN1C(SCc1ccccc1)=N2	100	-2	i	0.78	x	x	-0.7
Cc1nnc(SCC(=O)Nc2ccc3c4c(cccc24)CC3)n1C	98	-3	i	0.88	10	104	-0.6
COc1ccc(/C=N/NC(=O)CCCCCNC(=O)c2ccccc2)cc1	103	-13	i	0.92	23	130	1.4
COc1ccc(-c2csc(NC(C)=O)n2)cc1OC	101	-14	i	0.75	31	66	-2.1
CC1(c2ccccc2)NC(=O)N(NC(=O)CSc2n[nH]c(N)n2)C1=O (centres undefined)	101	x	i	1	x	x	x
COc1cc2c(cc1OC)C(C(=O)Nc1ccccc1N1CCN(C)CC1)C1c3ccccc3CCN1C2=O (centres undefined)	94	-7	i	0.87	-355	114	x
Cc1cc(C(=O)N2CCN(Cc3ccc4c(c3)OCO4)CC2)cs1	122	-3	i	0.91	-12	130	-1.8
Cc1cc(Br)ccc1SCC(=O)OCC(=O)c1c(N)n(C)c(=O)n(C)c1=O	109	x	i	1.1	x	x	x
C[n+]1cccc(CNC(=O)/C=N/O)c1	99	-3	i	1	x	x	-0.8
CCn1cc(C(=O)N2CCN(c3ccccc3OC)CC2)c2cc(OC)c(OC)cc2c1=O	79	2	i	1	45	46	x
Cc1ccc(/C=C/C(=O)NCCCN2CCN(CCCNC(=O)/C=C/c3ccc(C)cc3)CC2)cc1	113	-9	i	1.1	-19	122	-1.0
COc1ccc(Nc2nc(N)nc(COc3ccc(OC)cc3)n2)cc1	104	-9	i	0.97	-34	147	-2.6
CC1(C)Cc2ccccc2-c2c1c(=O)n(-c1ccccc1)c1nnnn21	x	-12	x	x	-24	119	-1.5

By substructure, the compounds so far with an aryl thioether with sulfur outside any ring
SMILES	RGS16-Gao	PKD1 inh	HSV augment	HSV augment primary fold	Insulin prom inh	Insulin prom inh cell count	GALR2 ag
Cc1nnc(SCC(=O)Nc2ccc3c4c(cccc24)CC3)n1C	98	-3	i	0.88	10	104	-0.6
CC1(c2ccccc2)NC(=O)N(NC(=O)CSc2n[nH]c(N)n2)C1=O (centres undefined)	101	x	i	1	x	x	x
Cc1cc(Br)ccc1SCC(=O)OCC(=O)c1c(N)n(C)c(=O)n(C)c1=O	109	x	i	1.1	x	x	x

Next part.
SMILES	RGS16-Gao	PKD1 inh	HSV augment	HSV augment primary fold	Insulin prom inh	Insulin prom inh cell count	GALR2 ag
CNS(=O)(=O)c1ccc2nc(NC(=O)c3ccc(N4C(=O)CCC4=O)cc3)sc2c1	101	-3	i	0.96	7	116	x
CN(C)c1cc(C(F)(F)F)nc(-c2ccccn2)n1	101	-9	i	0.9	3	112	0.6
COc1cccc(OC)c1C(=O)NN1CCCCC1	98	0	i	1	18	94	-1.6
CCOc1ccc(C(C)NC(=S)NC2CCCCC2)cc1 (centres undefined)	104	-5	i	1	x	x	x
Cc1ccc(C)n1-c1sc2c(c1C(=O)O)CCCC2	88	-2	i	1	12	132	-1.5
Cc1ccc(/C=N/NC(=O)CNC(=O)c2ccc(S(=O)(=O)N3CCCC3)cc2)o1	106	-3	i	0.9	33	122	x
COc1ccccc1NC(=O)N1CCC(C(=O)c2ccc(F)cc2)CC1	97	8	i	0.87	x	x	-1.0
Clc1ccc(OCc2nc(-c3ccccn3)n[nH]2)cc1	100	6	i	0.98	x	x	-1.7
CCc1nc(N2CCCCC2)c2oc3ccccc3c2n1	97	17	i	0.9	58	70	-0.6
COCCOC(=O)c1[nH]c2c(c1C)C(=O)C(C(=O)OC)C(C)C2 (centres undefined)	86	-3	i	1.3	x	x	-1.5
O=C(O)CCC(=O)N1CCc2cc(S(=O)(=O)N(CCc3ccccc3)Cc3ccccc3)ccc21	105	0	i	0.93	19	78	-1.0
S=C(Nc1ccc2nc(-c3ccccn3)c(-c3ccccn3)nc2c1)N1CCOCC1	102	2	i	1	x	x	x
CCO[C@H]1OC(C(=O)NCc2ccccc2)=C[C@@H](c2cn(C(C)=O)c3ccccc23)[C@@H]1CCCO	101	11	i	0.88	x	x	x
O=C1CN(C(=O)c2cc([N+](=O)[O-])ccc2Cl)C(c2ccc(F)cc2)c2cc(F)ccc2N1 (centres undefined)	32	-13	i	0.89	-76	65	0.0
O=C(c1ccc(F)cc1F)C1CCN(c2ccc([N+](=O)[O-])cn2)CC1	107	x	i	1.2	x	x	x
c1ccc(SCc2nc(-c3ccncc3)no2)cc1	98	-7	i	0.96	23	113	-2.2
CCCCOc1ccc(C2(C(=O)O)CCCC2)cc1	147	2	i	0.85	36	127	0.3
C/C(=N\O)C(C)(C)Nc1ccccc1F	101	x	i	0.96	x	x	x
COc1ccc(CCn2nnnc2C(c2ccccc2)N2CCN(C)CC2)cc1OC (centres undefined)	97	0	x	x	57	121	-1.5
O=C(NCC1CCCO1)c1sc2cc(Cl)ccc2c1Cl (centres undefined)	99	9	i	1.1	x	x	-2.8
CC(=O)n1cc(N(C(=O)CCl)c2ccc([N+](=O)[O-])cc2)c2ccccc21	96	x	i	0.7	x	x	x
O=C(C1CCCCC1)N1CCCn2c1nc1ccccc12	76	3	i	0.89	-40	108	-1.9
CCOC(=O)c1ccc(NC(=O)C2C3CCC(C3)C2C(=O)O)cc1 (centres undefined)	106	-3	i	1	23	49	3.8
O=C(CSc1nnc(-c2ccc(S(=O)(=O)N3CCCC3)cc2)o1)NCc1ccco1	67	-19	i	0.85	-45	126	0.8
O=C1CCC([N+](=O)[O-])C(c2cccc(Cl)c2Cl)N1 (centres undefined)	99	-3	i	1	0	150	-0.9
Cc1cc(NS(=O)(=O)c2ccc(NC(=O)c3ccco3)cc2)no1	98	12	i	0.96	x	x	-0.6
CCN1C(=O)C(CC(=O)Nc2ccccc2)S/C1=N\c1ccccn1 (centres undefined)	102	0	i	0.97	-80	134	x
CCCCN(C(=O)CSc1nncn1-c1ccccc1)c1c(N)n(Cc2ccccc2)c(=O)[nH]c1=O	65	-10	i	0.92	x	x	-2.0
N#Cc1ccc(/C=N/NC(=O)c2cccc(S(=O)(=O)N3CCOCC3)c2)cc1	97	-1	i	1	x	x	x
Cc1ccc(C2=NOC(C)(c3nnc(-c4ccc(F)cc4)o3)C2)cc1 (centres undefined)	98	x	i	1.1	x	x	x
CC1Cc2ccccc2N1C(=O)CSc1nnnn1-c1ccc2c(c1)OCCO2 (centres undefined)	97	8	i	0.87	9	78	-2.5
CC1(C)CC(=O)C(CC(=O)NC2CCCc3ccccc32)C(=O)C1 (centres undefined)	98	1	i	1	-21	98	x
N#Cc1nc(Cc2ccccc2)oc1NCCCn1ccnc1	109	3	i	0.95	-14	166	-0.4
Cc1nc(-c2ccc(NC(=O)c3ccccc3)cc2)cs1	98	-6	i	0.96	-14	74	x
Cc1cc(-c2ccccc2)nc(N(C)N)c1S(C)(=O)=O	92	1	i	0.93	56	67	x
CC(=O)Nc1ccc(S(=O)(=O)N(C)Cc2ccccc2)cc1	109	-8	x	x	-14	169	x
COc1ccc(OC)c(C2(O)CSC(=Nc3cccnc3)N2Cc2ccco2)c1 (centres undefined)	101	4	i	1.1	53	92	x
O=C(COc1ccc(-c2ccccc2)cc1)N/N=C/c1ccccc1Br	100	-11	i	0.85	-10	68	-0.4
Cc1ccc(C)c(S(=O)(=O)NCc2ccc(C(=O)N3CCC(Cc4ccccc4)CC3)cc2)c1	102	7	i	0.99	26	109	-0.8
O=C(Nc1nnc(C2CC2)s1)c1cccnc1Oc1ccc(Cl)cc1	99	x	i	1.1	x	x	x
COc1cc2c(cc1NC(=S)NC(=O)/C=C/c1ccco1)oc1ccccc12	21*	-3	i	0.97	12	73	-1.0
O=c1[nH]c(CSc2nnc3ccccn23)nc2ccccc12	105	-9	i	0.86	38	75	-2.0
CC(=O)Nc1cccc(/C(C)=N/NC(=O)c2ccc(O)cc2)c1	101	6	i	0.95	x	x	x
CCN(CC(=O)NC)S(=O)(=O)c1ccc(C)cc1	95	-5	i	1	-81	64	-1.1
Cc1cccc(NC(=O)CCC(=O)OCc2ccc(Br)cc2)c1	108	-2	i	0.96	-67	43	-0.7
N#C/C(=C\c1cn(Cc2ccccc2C#N)c2ccccc12)C(=O)NCc1cccs1	104	-12	x	x	x	x	-1.2
Cn1cnnc1SCc1ccc(C(=O)O)cc1	100	2	i	0.93	x	x	-1.2
Cc1cc(S(=O)(=O)Nc2ccc(N(C)C)cc2)c(C)s1	109	-7	i	1.1	15	147	-0.8
N#Cc1cc(-c2ccc(Cl)cc2)cnc1Sc1ccc(F)cc1	103	13	i	0.7	x	x	-2.8
O=C(COC(=O)c1ccccc1O)Nc1cc([N+](=O)[O-])ccc1Cl	96	x	i	1.1	x	x	x
Cc1cc(C)cc(NC(=O)c2snc3c(=O)[nH]cnc23)c1	73	6	i	1	-6	77	-2.1
CS(=O)(=O)N(CC(=O)NC1CCCC1)c1cccc(F)c1	99	-3	i	1.1	6	50	-1.1
O=c1c2c(nc3cc(-c4ccccc4)[nH]n13)CCC2	102	-11	i	0.78	x	x	-3.5
Cc1ccc(OCCCC(=O)Nc2nccs2)cc1	109	-2	i	0.98	23	61	-2.6
O=C(O)C/C=C(\NC(=O)OCc1ccccc1)C(=O)OCc1ccccc1	102	-4	i	1	x	x	x
CCOC(=O)N1CCC(=NNc2nc(C)cc(=O)[nH]2)CC1	102	-6	i	0.87	56	68	x
CNC(=O)CSc1nc(SC)ns1	100	-4	i	1	22	84	x
CCOc1ccc(N(Cc2cc3cc(OC)ccc3[nH]c2=O)S(C)(=O)=O)cc1	102	7	i	0.88	17	255	0.4
COC(=O)c1ccccc1NC(=O)CSc1nnc(-c2cccnc2)n1C	84	-3	i	1	-23	77	-2.8
CC1CCC(C(=O)c2c(O)c3ccccc3oc2=O)CC1 (centres undefined)	98	-6	i	0.81	-7	71	1.5

Continuation:
SMILES	RGS16-Gao	PKD1 inh	HSV augment	HSV augment primary fold	Insulin prom inh	Insulin prom inh cell count	GALR2 ag
CCOC(=O)C1(Cc2ccccc2)CCCN(C2CCCC2)C1 (centres undefined)	104	-4	i	1	-100	87	x
COc1ccc(N2CCN(C(=O)CN(c3ccccc3)S(=O)(=O)c3ccc(OC)cc3)CC2)cc1	100	-6	i	0.77	-80	50	0.1
Clc1ccc(-n2ncc3c(NCc4ccc5c(c4)OCO5)ncnc32)cc1	111	10	i	1	-14	100	1.7
CCN(CC)C(=O)c1ccc(Oc2ccc([N+](=O)[O-])cc2Cl)cc1	101	3	i	1.1	40	78	x
O=C(Nc1nnc(SCC(=O)N2CCOCC2)s1)c1ccccc1	99	-10	i	0.96	44	183	-0.3
CCN(CC)CCCNC(=S)Nc1ccc(Br)cc1	106	-2	i	0.79	36	106	x
CCc1ccc(CN2CCCC(CCC(=O)N3CCN(c4ccccn4)CC3)C2)o1 (centres undefined)	122	x	i	0.94	x	x	x
O=c1[nH]c2cc3ccccc3cc2nc1C(F)(F)F	104	-4	u	x	x	x	x
CCOC(=O)CN1Cc2cccc(C(=O)O)c2C1=O	110	1	i	0.91	x	x	-1.7
